Bm FixLJ act: activators of Burkholderia fixLJ two-component system. B. multivorans fixK-promoter GFP reporter, 18 h; hits give high values. 29,000 tested, 0.3% active. z-score (concentration not given with the values). AID 1918990;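 active = replicate mean overnight rise in green fluorescent reporter signal, 3 or more SD over negative controls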;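 note: score is relative to vehicle wells of the plate; 300 nL library stock went into each well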
Starred values were filed as active, the others as inactive.

Start of the data: the first 3 entries as a preview:
SMILES	Bm FixLJ act
CCOc1ccc(NC(=O)CC2C(=O)N(c3ccccc3)C(=O)N2CCc2sccc2C)cc1 (stereo not given)	-1.3
CCCn1ccnc1CNC(=O)N(C)Cc1nc2cc(C)c(C)cc2[nH]1	-0.47
CCCc1[nH]ncc1C(=O)N1CC2c3ccccc3OC[C@]2(C(=O)O)C1 (stereo not given in full)	-0.19

The list itself, from the first entry:
SMILES	Bm FixLJ act
CCOc1ccc(NC(=O)CC2C(=O)N(c3ccccc3)C(=O)N2CCc2sccc2C)cc1 (stereo not given)	-1.3
CCCn1ccnc1CNC(=O)N(C)Cc1nc2cc(C)c(C)cc2[nH]1	-0.47
CCCc1[nH]ncc1C(=O)N1CC2c3ccccc3OC[C@]2(C(=O)O)C1 (stereo not given in full)	-0.19
CC1=C(C(=O)Nc2cccc(C(F)(F)F)c2)C2(CCCCC2)OC1=O	-1.1
O=C(CCc1cccc(F)c1)N1CC(CO)C(CN2CCOCC2)C1 (stereo not given)	-0.81
CNc1nccnc1-c1cccc(C(=O)N(C)CCc2scnc2C)c1	0.95
Cc1cc(NC(=O)CN2CCC(C)CC2)nc2c1c(=O)oc1ccccc12	-0.98
COCC(=O)Nc1ccc(NC(=O)c2ccc(N3CCCCC3)cc2)cc1	0.11
CCOc1ccc(CNC(=O)c2ccc(CSc3nc4ccncc4n3Cc3ccc(F)cc3)cc2)cc1	-2.9
Cc1nc2c(c(N(C)CCN3CCCCC3=O)n1)Cc1ccccc1OC2	-2
Cc1cc2oc(C(=O)Nc3ccc(S(=O)(=O)N(C)c4ccccc4)cc3)cc(=O)c2cc1C	-0.53
CCOc1ccccc1-n1cc2c(c1-c1ccc(OC)cc1)c(=O)n(C)c(=O)n2C	-0.8
CNc1ncccc1C(=O)NC1CCOCC1Oc1ccc(CO)cc1 (stereo not given)	-0.33
O=C(O)c1ccc(CSc2nc3cccnc3n2Cc2cccc(F)c2)cc1	-1.4
Cc1nnnn1-c1cccc(NC(=O)N(C)Cc2cc(C(C)C)on2)c1	1.1
Cc1noc(C)c1C1CCCN1C(=O)CCS(=O)(=O)c1ccccc1 (stereo not given)	0
COc1ccc(N(C(=O)c2ccccc2)S(=O)(=O)c2ccc3c(c2)n(C)c(=O)n3C)cc1	-2.2
COc1ccc(C(=O)NCc2cccc3[nH]ccc23)cc1N1CCOCC1	-2.9
Cc1cc(C)cc(NC(=O)CSc2nc(-c3ccccc3)c3cc(F)ccc3n2)c1	-0.09
COc1cc2c(=O)n(CCC(=O)NCC3CCCO3)c(=O)n(CC(=O)Nc3ccc(C)c(C)c3)c2cc1OC (stereo not given)	-0.16
CCn1cc(C(=O)OCC(=O)Nc2cc(C)cc(C)c2)c(=O)c2ccc(C)nc21	-1.4
Cn1c(=O)n(-c2ccc(Br)cc2F)c(=O)c2sc3ccccc3c21	-0.21
CSc1ccc(C(=O)NC(c2ccc3c(c2)CCO3)C2CC(O)C2)cc1 (stereo not given)	1.2
Cc1cc(C)c(NC(=O)Cn2c(=O)n(CCC(=O)NCc3ccc4c(c3)OCO4)c(=O)c3ccccc32)c(C)c1	-0.62
CCCCOc1ccc(C2=NC(c3ccncc3)=Nc3ccc(Br)cc3N2)cc1	0.54

Among those listed so far, these have an NH in an aromatic ring.
SMILES	Bm FixLJ act
CCCn1ccnc1CNC(=O)N(C)Cc1nc2cc(C)c(C)cc2[nH]1	-0.47
CCCc1[nH]ncc1C(=O)N1CC2c3ccccc3OC[C@]2(C(=O)O)C1 (stereo not given in full)	-0.19
COc1ccc(C(=O)NCc2cccc3[nH]ccc23)cc1N1CCOCC1	-2.9

Later entries:
SMILES	Bm FixLJ act
CC(C)c1ccc(NC(=O)c2cc3c(s2)-c2ccccc2SC3)cc1	-0.2
Cc1csc(CCCNC(=O)CN(C)Cc2ccncc2)n1	-1.4
Cc1ccc2c(c1)Cc1c(nc(-c3ccc(Cl)cc3)nc1SCC(=O)N1CCCCC1)O2	-0.9
Cc1ccc(NC(=O)Cn2nc(Cc3ccncc3)c3ccccc3c2=O)c(Cl)c1	0.68
Cc1nc2ccc(CC(=O)NC3CCC(NC(=O)C=Cc4ccccc4)C3)cc2[nH]1 (stereo not given)	-0.48
Cn1ccnc1-c1ccccc1C(=O)Nc1cccc(NC(=O)c2cccnc2)c1	-0.19
Cc1nc2ccc(S(=O)(=O)NC(C(=O)NCc3ccccc3Cl)C(C)C)cc2s1 (stereo not given)	-0.64
Cc1cc2oc(C(=O)N(Cc3ccc(N(C)C)cc3)Cc3ccco3)c(C)c2cc1Cl	0.17
Cc1cc(S(=O)(=O)Nc2cc3c(cc2NCc2ccccc2)n(C)c(=O)n3C)ccc1F	-1.3
COc1ccc(/C=C/c2nc(C#N)c(N3CCCCC3)o2)cc1OC	-1.1
CC(=O)O[C@]1(C(C)=O)CCC2C3C[C@H](C)C4=CC(=O)CC[C@]4(C)C3CC[C@@]21C (stereo not given in full)	-1.6
Cc1ccc(S(=O)(=O)c2nc(-c3ccccc3F)oc2NCc2ccccc2)cc1	1.6
CN(c1ccccc1)C(CNS(=O)(=O)c1ccccc1)c1ccccc1 (stereo not given)	0.1
CCCCOc1ccc(NC(=O)Cn2nnnc2-c2ccccc2F)cc1	-0.95
CCCCOc1c(CNC(C)c2n[nH]c(=O)[nH]2)cccc1OC (stereo not given)	0.59
CCc1ccc(NC(=O)CCNS(=O)(=O)c2ccc3c(c2)oc(=O)n3C)cc1	-0.47
O=C(c1ccc2c(c1)N(Cc1c(F)cccc1Cl)C(=O)c1ccccc1S2)N1CCCC1	-2.2
Cn1c(=O)c2c(nc(NCCc3ccccc3)n2Cc2ccccc2Br)n(C)c1=O	-2.2
Cn1c(=O)c2cc(S(=O)(=O)NC(Cc3ccccc3)C(=O)Nc3ccc(F)cc3)ccc2n(C)c1=O (stereo not given)	0.46
O=C(C1CCCN(S(=O)(=O)c2ccc(Br)s2)C1)N1CCN(c2ccccc2)CC1 (stereo not given)	-0.16
Cc1cnn(Cc2ccc(Cl)cc2)c1NC(=O)c1ccnn1C(F)F	0.12
CCCNC(=O)CCSc1nc(-c2ccc3c(c2)OCO3)cc(C(F)(F)F)n1	-0.89
COc1ccc(/C=C/C(=O)Nc2sc3c(c2C(N)=O)CCCC3)cc1	-0.89
COc1ccc2[nH]cc(CCNC(=O)Nc3ccccc3C)c2c1	-3
COc1ccc(CN2CCn3nc(CNC(=O)C4CCC4)cc3C2)cc1O	-0.4
Next section.
SMILES	Bm FixLJ act
CN(C)CC(C)(C)Cn1ccnc1-c1cn(C2CCNCC2)nn1	1.1
CN1CC(N)CC1C(=O)N1CCC2(CC1)c1nc[nH]c1CCN2C(=O)C1CC1 (stereo not given)	0.19
CC(C)c1cc(CN2CC(O)C(Cc3ccnc4ccccc34)C2)on1 (stereo not given)	-2
CC(C)Cn1c(=O)c2ccccc2n2c(CCC(=O)N3CCN(c4ccccc4)CC3)nnc12	1
Cc1ccc(C(=O)N2CCCC(c3nnc(CN4CCOCC4)n3C)C2)cc1 (stereo not given)	-0.32
COc1ccc(CNC(=O)c2ccc3c(c2)N(Cc2ccccc2F)C(=O)c2ccccc2S3=O)cc1 (stereo not given)	-1.3
CC(=O)Nc1ccc(S(=O)(=O)N2CCN(c3ccc(C)c(C)c3)CC2)cc1	1.4
COc1ccc(/C=C/C(=O)Nc2sc3c(c2C(N)=O)CCC(C)C3)cc1OC (stereo not given)	-3.1
COc1cccc(CNC(=O)CCc2c(C)nc3c4c(C)cc(C)nc4nn3c2C)c1	-1.2
CCCCN(CC)C(=O)c1nn(-c2ccc(OC)cc2)c(=O)c2c1c1ccccc1n2C	-0.74
CCOC(=O)C1CCN(C(=O)Cn2ncc3c4ccccc4n(Cc4ccccc4)c3c2=O)CC1	-2.4
N#Cc1cc2c(=O)n3ccccc3nc2n(-c2nnc(SCc3ccccc3Cl)s2)c1=O	0.08
CC1=C(C(=O)Nc2ccc(C)cc2C)C(c2ccc(O)cc2)n2nnnc2N1 (stereo not given)	-0.61
Cc1ccc2oc(C(=O)Nc3ccc(S(=O)(=O)Nc4onc(C)c4C)cc3)cc(=O)c2c1	-0.87
Cc1ccc(-n2cc(-c3ccccc3)nc2S(=O)(=O)CC(=O)Nc2ccc(F)cc2)cc1	2
Cc1ccc(C)c(OCCOCCn2c(-c3ccc(Br)cc3)nc3ccccc3c2=O)c1C	-0.24
CCc1ccc2c(c1)c(=O)c(S(=O)(=O)c1ccccc1)cn2CC(=O)Nc1ccc(OC)cc1	-2.5
CC(C)(O)CCc1ccc(C(=O)N2CCCC3(C2)C(=O)Nc2ccccc23)cc1 (stereo not given)	0.91
O=C1CCCc2c1cc(C(=O)N1CCN3C(=O)OCC3C1)c(=O)n2-c1ccccc1 (stereo not given)	-1.1
Cc1cc(C)cc(-n2c(=O)[nH]c3ccccc3c2=O)c1	-0.59
Cc1ccc(NC(=O)[C@H](CSCc2ccccc2)N2Cc3ccccc3C2=O)cc1	1.4
COc1ccc(-c2nc(CN(C)Cc3ncc[nH]3)c(C)o2)c(C)c1C	0.11
CC(=O)N1c2c(cc(Br)cc2S(=O)(=O)N2CCN(c3cc(C)ccc3C)CC2)CC1C (stereo not given)	0.1
Cc1nn(-c2cccc(Cl)c2)c2nc(-c3cccnc3)cc(C(F)(F)F)c12	0.57
Cc1ccc(-n2c(C)cc(/C=C(\C#N)C(=O)Nc3ccc(C)c(C)c3)c2C)cc1	-1.2

Another view of some results above:
COc1ccc(-c2nc(CN(C)Cc3ncc[nH]3)c(C)o2)c(C)c1C
  Bm FixLJ act: 0.11
CC(=O)N1c2c(cc(Br)cc2S(=O)(=O)N2CCN(c3cc(C)ccc3C)CC2)CC1C (stereo not given)
  Bm FixLJ act: 0.1
Cc1nn(-c2cccc(Cl)c2)c2nc(-c3cccnc3)cc(C(F)(F)F)c12
  Bm FixLJ act: 0.57
Cc1ccc(-n2c(C)cc(/C=C(\C#N)C(=O)Nc3ccc(C)c(C)c3)c2C)cc1
  Bm FixLJ act: -1.2

Going on with the list:
SMILES	Bm FixLJ act
CC(C)=CCCN1CCC(O)[C@]2(CCCN(C(=O)Cn3cnnn3)C2)C1 (stereo not given in full)	-1.4
O=C(NC1CCCC1)c1ccc(CSc2nc3ccncc3n2Cc2ccccc2F)cc1	-6.1
Cc1cn2c(=O)cc(COc3ccc(NC(=O)COc4ccccc4)cc3)nc2s1	2
C=CCNC(=O)N1CCCn2nc(-c3nc4ccccc4n3C)cc2C1	0
Cc1cc(C)nc(-c2ccc(C(=O)N3CCNC(=O)C3CCO)cc2)n1 (stereo not given)	1.3
O=C(CN1CCOc2ccccc2C1)NCc1cn2c(n1)SCC2	-0.47
O=C1CC(c2nc3ccccc3[nH]2)CN1c1cccc(Cl)c1 (stereo not given)	-2.2
O=C(/C=C/c1cn(CC(O)CN2CCc3ccccc32)c2ccccc12)c1ccc(Br)cc1 (stereo not given)	-0.31
CN(Cc1cc2ccccc2s1)C(=O)c1cnn2cc(CCO)cnc12	-0.54
O=C(NCCn1cc(SCc2ccccc2)c2ccccc21)c1cccs1	1.6
CS(=O)(=O)c1ccc(CC(=O)N2CCC3C(C2)OCc2cnnn23)cc1 (stereo not given)	-0.67
Cc1cc(CC2CN(C(=O)Cc3ccc(N)cc3)CC2O)n[nH]1 (stereo not given)	-0.21
CCOC(=O)Cn1nc(-c2ccccc2)c2cnc3ccc(OCC)cc3c21	1.5
CCCN(CCC)C(=O)Cn1c(=O)n(-c2cccc(C(F)(F)F)c2)c(=O)c2c(C)c(C)sc21	-0.43
CCc1ccc(NC(=O)C2CCN(S(=O)(=O)c3c(C)noc3/C=C/c3cccs3)CC2)cc1	-0.72
CCOC(=O)c1ccc(N2C(=O)c3n[nH]c(-c4ccco4)c3C2c2ccc(F)cc2)cc1 (stereo not given)	-0.38
CCOC(=O)N1CCN(CCC(=O)Nc2cc(C)ccc2C)CC1	-0.09
COc1ccc(NC(=O)Cn2c(=O)n(CCC(=O)NCC3CCCO3)c(=O)c3cc(OC)c(OC)cc32)cc1 (stereo not given)	1.3
O=C(OCc1ccccc1)c1ccccc1	-0.03
CCc1n[nH]c2c1CN(C(=O)C(C)N1CCN(C)CC1)CC2 (stereo not given)	-0.69
CCOc1ccc(S(=O)(=O)N2CCN(c3ccccc3)CC2)cc1C(N)=O	-1.2
COc1ccc(-c2c3c(nc4sc(C(=O)Nc5ccc(Cl)cc5)c(N)c24)CC(C)(C)CC3=O)cc1	-1.6
COc1ccccc1CNC(=O)CCCn1c(=O)c2ccccc2n(Cc2ccc(C)cc2)c1=O	0.13
Cc1nc2ccccc2n1CC(O)COc1ccc(C(=O)O)cc1 (stereo not given)	-2.4
CCc1cccc(NC(=O)C(Cc2ccccc2)NS(=O)(=O)c2ccc3c(c2)c(=O)n(C)c(=O)n3C)c1 (stereo not given)	-3.2
Next section
SMILES	Bm FixLJ act
CCOCCC(=O)N1CCC[C@@]2(C(=O)NCc3cccnc3N)CCN(C)C[C@@H]12	-0.81
Cc1cc2nn(-c3ccc(F)cc3)nc2cc1NC(=O)c1cccc([N+](=O)[O-])c1C	-1.2
Fc1ccc(C(NCCc2ccccc2)c2nnc(-c3ccccc3Cl)o2)cc1 (stereo not given)	-1.3
O=C(CCC1N=C2c3ccccc3N=C(SCC(=O)Nc3cccc(Cl)c3)N2C1=O)NCc1ccco1 (stereo not given)	-2.5
CC(C)S(=O)(=O)c1oc(-c2ccc(F)cc2)nc1S(=O)(=O)c1ccccc1	-2.3
Cc1ccccc1-n1c(/C=C/c2ccc(O)cc2)nc2ccccc2c1=O	-0.56
CCCn1nc(C)c(CNC(=O)CCC(=O)c2ccc(F)cc2)c1C	0.65
Cc1c(Cl)cc(C(=O)NC(C)c2ncnn2C)cc1Cl (stereo not given)	-1.9
CCCc1nc(-c2nc(CC3CCN(C)CC3)no2)cs1	-2.5
O=S(=O)(c1ccc(Cl)cc1)c1nc(-c2ccco2)oc1SCc1ccccc1F	-0.05

Compound activity deposited in PubChem BioAssay by ICCB-Longwood Screening Facility, Harvard Medical School.

This is a subset; rates above refer to the full screens.
